# KCNQ2 enhance = potentiators of rat KCNQ2 potassium channel. CHO-K1 KCNQ2, FluxOR thallium flux fluorescence; hits give high values. B-score at 10 µM. 0.54% of 310,000 active. AID 2239;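 active means fluorescence ratio B-score at least 3 SD of library B-scores, with initial fluorescence B-score within 3 SD, cut at about 5.3 in these data; same plate scores as AID 2156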;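 further: B-score of peak minus minimum over baseline fluorescence ratio after K+ and Tl+ stimulus; positive B-score means potentiation of KCNQ2 with more thallium influx and brighter signal; only the inactives scoring about 0 or higher are listed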
# KCNQ2 enhance baseline = further read-out of KCNQ2 enhance, marked with its call; B-score; compound at 10 µM; measured here: initial fluorescence intensity artifact check;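 brightness before thallium and not channel activity; 0 = typical well and far values either way flag optical interference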
# Numbers without * were called inactive.
SMILES,KCNQ2 enhance,KCNQ2 enhance baseline
O=C(CCN1CCN(CCO)CC1)N1c2ccccc2Sc2ccc(C(F)(F)F)cc21,0.81,-0.06

# Some of the compounds tested. The share of hits here may be higher or lower than overall.
